RanGTP-Imp inh: inhibitors of RanGTP-importin-beta interaction, primary screen, biochemical, FRET, CFP-Ran, YFP-importin-beta, homogeneous; Ran GTPase (GTP-bound) - importin-beta complex; cell-free CFP-Ran/YFP-importin-beta FRET ratio; inhibition, % (test concentration not listed); actives 1.1% (n = 300,000); AID 2216, 2009;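 active = most replicates above 15%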;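 also: 0% = DMSO wells and 100% = Ran loaded with GDP instead of GTP; wells of about 40 µL received 100 nL stock; the first replicate is given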
T cruzi inh: inhibitors of intracellular T. cruzi growth, primary screen, luminescence, NIH3T3 host cells; T. cruzi beta-gal in NIH3T3, 90 h; inhibition, % (concentration not given with the values); actives 1.4% (n = 300,000); AID 1885, 2009;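 active = mean inhibition across valid replicates above about 55%, limit read from the data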;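 also: signal also drops with host cell toxicity which is not excluded here; 0% = plate median of DMSO wells and 100% = zero luminescence signal; higher percent means less beta-gal luminescence so fewer parasites; stock transfer was 50 nL into about 50 µL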
LANA-H2B inh: blockers of LANA interaction with H2A/H2B – biochemical, FP readout, HTS, primary screen; Protein LANA1 (Human herpesvirus 8 type P (isolate GK18)), Q9QR71; cell-free LANA-H2A/H2B peptide, fluorescence polarization; inhibition, % (concentration not given with the values); actives 0.6% (n = 320,000); AID 2629, 2010; in the data active = inhibition mostly above about 10%, no sharp cut-off; inactive = mostly below about 6.7%;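 also: stock transfer was 7.5 nL into about 10 µL; 0% = median of vehicle wells and 100% = median of positive control wells; one replicate is shown; the record names a cut of 25% in any replicate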
UCH37 inh: inhibitors of human UCH37 deubiquitinase, primary screen, biochemical, Ub-AMC cleavage, fluorescence. inhibition, % (no concentration beside the values). actives 0.33% (n = 330,000). AID 588478, 2011. purified proteasome/UCH37;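 active = mean of two replicates above 20%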;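 also: 0% = compound-free wells with enzyme and 100% = wells lacking proteasome; stock transfer was 100 nL into about 20 µL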
Target sequence (Q9Y5K5 whole entry, looked up): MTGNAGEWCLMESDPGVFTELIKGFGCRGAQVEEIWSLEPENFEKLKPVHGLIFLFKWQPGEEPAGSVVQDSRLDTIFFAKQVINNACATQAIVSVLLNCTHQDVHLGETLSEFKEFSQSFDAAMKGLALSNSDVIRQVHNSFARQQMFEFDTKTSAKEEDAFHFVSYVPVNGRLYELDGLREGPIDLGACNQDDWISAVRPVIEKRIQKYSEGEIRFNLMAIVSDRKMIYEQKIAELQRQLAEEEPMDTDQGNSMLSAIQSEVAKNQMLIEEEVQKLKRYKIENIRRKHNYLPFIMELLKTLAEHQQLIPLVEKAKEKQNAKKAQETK
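system = Proteasome-associated human UCH37 deubiquitinase | amount = 0.15 nM proteasome as dispensed | medium = pH 7.4 Tris-HCl (50 mM) with ovalbumin, ATP-MgCl2, DTT | incubation = 30 min preincubation with enzyme, 25 min cleavage at room temperature | detection = AMC fluorescence 355/460 nm | read-out basis = percent inhibition | controls = no-proteasome and no-compound wells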
Beta apoptosis: inhibitors of cytokine-induced beta cell apoptosis, primary screen, luminescence | INS-1E cytokine-induced death, ATP luminescence, 48 h; percent of positive-control rescue, neutral wells zero | protection from apoptosis, % (concentration not given with the values) | actives 0.8% (n = 300,000) | AID 435005, 2010;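 active = all replicates at 75% or more, or half of them and the mean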;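 also: 0% = cytokine-treated negative control wells and 100% = positive control rescue; higher means more ATP so stronger rescue from cytokine killing; wells of about 40 µL received 100 nL stock; the first replicate is given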
A1 inh: caspase 3/7 activation in MEF A1-2A-BIM cells, primary screen, A1 inhibitor project, cell-based, luminescence, HTS; Caspase-Glo 3/7 luminescence, 3 h; percent of clofoctol response, vehicle zero; caspase activation, % (no concentration beside the values); actives 0.066% (n = 330,000); AID 2462, 2010;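 active = over half of replicate activation scores above 10%, or exactly half above 10 with the replicate mean above 10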;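 also: wells of about 30 µL received 50 nL stock; many hits fall short of the cut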
B2AR ag: beta2AR agonists driving receptor internalization, primary screen, cell-based, FAP fluorogen, flow cytometry; Beta-2 adrenergic receptor (Homo sapiens), P07550; Am2.2-beta2AR cells; reference of the scale not given here; response, % (no concentration beside the values); actives 0.43% (n = 340,000); AID 504454, 2011;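 active = response above a set limit, near 3 SD of response in nonfluorescent compounds, cut at about 42% in these data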;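 also: stock transfer was 100 nL into about 11 µL; a reference agonist was the positive control; negative values mostly stem from fluorescent compounds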
Target sequence (P07550 whole entry, looked up): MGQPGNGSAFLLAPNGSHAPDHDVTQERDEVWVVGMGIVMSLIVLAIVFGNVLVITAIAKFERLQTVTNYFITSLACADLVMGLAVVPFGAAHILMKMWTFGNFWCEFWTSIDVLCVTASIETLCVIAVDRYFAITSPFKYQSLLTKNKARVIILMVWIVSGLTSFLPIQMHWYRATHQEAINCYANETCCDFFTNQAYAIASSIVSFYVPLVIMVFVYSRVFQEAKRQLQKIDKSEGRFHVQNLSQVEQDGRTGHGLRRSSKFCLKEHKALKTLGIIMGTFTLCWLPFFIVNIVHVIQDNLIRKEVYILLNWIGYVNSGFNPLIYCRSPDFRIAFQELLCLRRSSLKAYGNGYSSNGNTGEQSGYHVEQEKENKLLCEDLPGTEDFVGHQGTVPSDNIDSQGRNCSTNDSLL
Calb FLC: C. albicans growth inhibition with fluconazole, primary screen, CaCi-2 strain, Alamar Blue fluorescence. C. albicans CaCi-2 (fluconazole-resistant clinical isolate) + fluconazole, 48 h. growth inhibition, % (test concentration not listed). actives 0.57% (n = 300,000);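 active = most replicates above 75%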;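 also: all wells also contain fluconazole at 8 µg/ml as a sub-toxic cotreatment; 0% = median of DMSO wells and 100% = median of geldanamycin control wells; wells of about 8 µL received 7.5 nL stock; the first replicate is given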
Active calls of the source: *; . = not tested or not shown.

SMILES	RanGTP-Imp inh	T cruzi inh	LANA-H2B inh	UCH37 inh	Beta apoptosis	A1 inh	B2AR ag	Calb FLC
Cc1ccc(CN2CC34C=CC(O3)C(C(=O)NCc3ccc5c(c3)OCO5)C4C2=O)cc1 (configuration not stated)	0.5	7.9	-3.6	2.6	-1.0	0.8	-2.0	-15.1
Cc1nn(CCC#N)c2nc(-c3ccccc3)cc(C(F)(F)F)c12	-3.4	20.0	-4.3	-12.9	-1.3	-0.3	-10.0	-5.9
CCn1cc(C(=O)N[C@H](C(=O)NCCCOC)C(C)C)c(=O)c2cc3c(cc21)OCO3	-2.6	-9.3	-2.2	-7.3	-7.3	1.2	-4.9	0.3
CCOC(=O)C1=C(C)NC2=C(C(=O)CC(C)(C)C2)C1c1ccc(N(C)C)cc1 (configuration not stated)	0.8	39.6	-0.9	-26.0	-5.9	-0.1	-4.5	-3.7
O=C(O)c1cccc(S(=O)(=O)N2CCC(n3nnc4cc(C(F)(F)F)ccc43)CC2)c1	7.8	-24.2	2.9	1.9	4.4	-0.4	-13.2	6.7
Cn1c2ccccc2c(=O)c2cc(C#Cc3ccsc3)ccc21	73.1*	-21.8	1.9	1.7	0.0	-4.3	0.2	-7.9
NS(=O)(=O)c1ccc(CCNC(=S)Nc2ccccc2)cc1	4.0	-30.5	0.8	2.7	4.4	-0.4	-1.0	-3.0
CCOCCCNC(=O)c1ccc(N(C)S(=O)(=O)c2ccc(OC)cc2)cc1	.	-7.8	5.8	1.0	0.8	-0.8	-6.6	106.3*
O=C(CSC(=S)N1CCCCC1)c1c(F)cccc1F	18.8*	-8.1	5.6	3.3	.	-4.6	-3.8	0.7
C=CCNc1nc2c(c(=O)[nH]c(=O)n2C)n1CC(O)COc1ccc2ccccc2c1 (configuration not stated)	-0.5	3.4	.	-0.4	.	.	9.6	3.7
Cc1ccc(-c2[nH]c3ccccc3c2SCCNC(=O)c2cc3ccccc3oc2=O)cc1	-2.4	-14.2	-1.9	2.0	3.1	-0.3	12.7	-5.8
Cc1cc(=O)oc2cc(OCC(=O)N3CCN(c4ccccc4)CC3)c(Cl)cc12	1.0	5.7	-7.3	3.7	-4.3	0.5	0.2	-0.7

Filtered by structure: those above containing a halogen (4)
SMILES	RanGTP-Imp inh	T cruzi inh	LANA-H2B inh	UCH37 inh	Beta apoptosis	A1 inh	B2AR ag	Calb FLC
Cc1nn(CCC#N)c2nc(-c3ccccc3)cc(C(F)(F)F)c12	-3.4	20.0	-4.3	-12.9	-1.3	-0.3	-10.0	-5.9
O=C(O)c1cccc(S(=O)(=O)N2CCC(n3nnc4cc(C(F)(F)F)ccc43)CC2)c1	7.8	-24.2	2.9	1.9	4.4	-0.4	-13.2	6.7
O=C(CSC(=S)N1CCCCC1)c1c(F)cccc1F	18.8*	-8.1	5.6	3.3	.	-4.6	-3.8	0.7
Cc1cc(=O)oc2cc(OCC(=O)N3CCN(c4ccccc4)CC3)c(Cl)cc12	1.0	5.7	-7.3	3.7	-4.3	0.5	0.2	-0.7

Other records follow:
SMILES	RanGTP-Imp inh	T cruzi inh	LANA-H2B inh	UCH37 inh	Beta apoptosis	A1 inh	B2AR ag	Calb FLC
CCCS(=O)(=O)c1c(S(=O)(=O)CCC)c2c(C)cccn2c1C(N)=O	-2.4	-13.1	3.7	0.3	-8.8	-0.2	-4.1	21.8
O=C(NCc1ccc2c(c1)OCO2)c1cc(-c2ccc(Cl)cc2Cl)on1	-3.1	-0.4	-3.2	0.5	-6.1	-0.8	1.5	-7.2
O=C(CSc1nc2ccccc2c(=O)n1Cc1ccccc1)Nc1ccc(Br)cc1C(=O)O	0.6	-11.0	0.1	-0.1	-9.1	0.5	-17.0	32.8
COc1ccc(C(=O)NCC2CCCO2)cc1 (configuration not stated)	-0.8	1.5	-0.2	1.1	-5.6	-0.4	4.3	-11.4
Cc1cc2ccccc2cc(C)c1=O	-0.1	-6.9	-2.3	1.8	0.5	-0.8	-2.3	-1.5
CCN1/C(=N\N)c2cccc3cccc1c23	-1.7	-9.6	-9.8	.	8.2	0.2	-40.8	-9.0
CN1/C(=C/C=C(C#N)C#N)C=Cc2ccccc21	-0.1	6.5	1.5	8.6	11.9	1.7	8.0	9.4
Cc1nnc(SCC(=O)NCc2ccco2)n1-c1ccc(F)cc1	-3.2	2.2	1.1	2.7	-7.5	0.6	-3.3	-6.8
CC(CCc1ccccc1)NC(=O)CNC(=S)N(Cc1cccs1)C1CCCC1 (configuration not stated)	-2.3	38.0	.	0.1	.	.	-3.3	7.9
CC(C)NC(=O)COC(=O)c1ccccc1C(=O)c1ccccc1	0.6	-3.8	-6.8	2.0	-2.1	0.6	7.7	6.0
CC1Cc2ccccc2N1c1ncnc2c1nnn2Cc1ccccc1Cl (configuration not stated)	4.3	35.3	-2.4	-218.8	6.7	0.7	7.6	-12.9
Cc1ccc(C2=NNC(C(O)C(O)C(O)C(C)O)S2)cc1 (configuration not stated)	4.6	-2.5	0.7	-1.2	-7.7	0.4	-6.1	-6.8
C=CCN=c1scc(C)n1/N=C/c1ccc(O)c(O)c1	1.5	-35.0	3.2	.	13.7	0.2	1.6	-19.6
CCCc1[nH]nc2c1C(c1c(C)nn(-c3ccccc3)c1Cl)C(C#N)=C(N)O2 (configuration not stated)	1.5	2.4	2.5	2.5	.	2.0	-0.5	0.4
O=C1NCC(NC(=O)C(F)(F)F)c2cc3c(cc21)OCO3 (configuration not stated)	-0.5	-8.7	2.9	3.5	-11.2	0.0	3.8	-11.1
C(=N\Nc1ncnc2ccccc12)/c1ccccc1	-3.3	-30.5	-0.2	.	4.2	-6.0	-3.5	-2.7
CCOC(=O)CC(=O)NC(C)(C)CCCCC(C)(C)NC(=O)CC(=O)OCC	5.7	-4.1	3.7	.	-3.9	-1.8	3.3	-9.8
Cc1cc(OCC(=O)NCC(O)c2ccccc2)c2c(C)cc(=O)oc2c1 (configuration not stated)	0.6	8.5	5.8	-92.4	-0.1	0.1	4.4	-0.3
COc1ccc(/C=N/c2nc3ccccc3n2CCN2CCCCC2)cc1OC	2.6	42.0	1.9	.	3.4	-0.1	-2.4	-8.0
Cc1n[nH]c(=O)nc1N/N=C/c1ccco1	-1.5	-1.7	-4.2	.	-0.8	0.0	7.8	-4.5
COc1ccc2oc(C(=O)OCC(=O)N3CCCC(C)C3)c(C)c2c1 (configuration not stated)	1.8	-2.6	5.4	-53.6	1.3	0.3	-1.6	-8.1
CC(=O)O/N=C(/c1nonc1N)N1CCN(c2ccc([N+](=O)[O-])cc2Cl)CC1	1.1	10.6	2.5	.	4.2	1.7	21.1	12.5
Cc1nnc(-c2ccccc2)c(=O)n1/N=C/c1c(O)ccc2ccccc12	-30.4	64.9*	2.5	.	88.0*	0.0	13.9	-1.4
COc1ccc(-c2nc3c(s2)CN(S(C)(=O)=O)CC3)cc1OC	2.1	-1.9	-2.1	-236.4	-5.8	-1.8	-4.4	7.6

Molecules above that have a thiophene ring, fused or not, in the order listed:
SMILES	RanGTP-Imp inh	T cruzi inh	LANA-H2B inh	UCH37 inh	Beta apoptosis	A1 inh	B2AR ag	Calb FLC
Cn1c2ccccc2c(=O)c2cc(C#Cc3ccsc3)ccc21	73.1*	-21.8	1.9	1.7	0.0	-4.3	0.2	-7.9
CC(CCc1ccccc1)NC(=O)CNC(=S)N(Cc1cccs1)C1CCCC1 (configuration not stated)	-2.3	38.0	.	0.1	.	.	-3.3	7.9

Remaining list, next part
SMILES	RanGTP-Imp inh	T cruzi inh	LANA-H2B inh	UCH37 inh	Beta apoptosis	A1 inh	B2AR ag	Calb FLC
O=C(CCNS(=O)(=O)c1ccccc1Cl)N1CCN(c2ccccn2)CC1	.	.	-7.4	2.9	-2.3	-0.4	-5.5	.
CCn1c(CSc2nnc(-c3ccncc3)n2CCOC)nc2cc(C(=O)O)ccc21	-3.6	-2.2	-1.7	4.2	1.3	0.4	2.5	4.4
C=CCNC(=S)NNC(=O)COc1ccc(Br)cc1	-0.7	1.0	3.5	0.4	-3.0	-4.2	1.1	-0.8
Cn1c(=O)oc2cc(S(=O)(=O)N3CCC(C(=O)NCc4ccc(F)cc4)CC3)ccc21	0.8	-9.9	1.5	5.4	-4.2	0.4	-5.2	9.1
O=C(COc1ccc(Cl)cc1)NC(=S)Nc1ccccc1N1CCOCC1	.	-0.6	7.0	4.9	5.7	0.1	-0.5	.
Cc1cc(C)c2c(=O)cc(C(=O)NCc3ccccc3)oc2c1	0.2	19.9	2.2	0.0	-1.1	0.3	1.9	-5.6
Cc1noc(C)c1NC(=O)N(C)C[C@H]1Oc2c(NS(=O)(=O)c3cccs3)cccc2C(=O)N([C@H](C)CO)C[C@@H]1C	.	.	4.4	0.6	-4.4	-0.1	6.8	.
COc1ccc(NC(=O)C2CSC(C)(C)N2C=O)cc1 (configuration not stated)	-1.6	-0.4	5.6	-1.0	1.0	0.3	-2.7	5.5
CC(O)C(NS(=O)(=O)c1ccc(Cl)cc1)C(=O)OCC(=O)Nc1cccnc1Cl (configuration not stated)	2.2	2.4	5.8	-28.4	-2.2	1.1	3.3	0.8
O=C(OCc1c(Cl)cccc1Cl)c1cccnc1Cl	4.5	-9.1	4.6	3.2	-4.4	-0.4	3.4	1.2
CCOC(=O)N1CCN(C(=O)c2ccccc2N(Cc2ccccc2)S(=O)(=O)c2ccc(OC)cc2)CC1	-1.2	20.2	-3.7	0.4	13.8	0.1	-12.8	21.9
CC(C)N1CCC(N2CCN(C/C=C/c3ccccc3)CC2CCO)CC1 (configuration not stated)	0.5	9.9	0.7	2.8	-3.3	-0.3	-2.4	-5.6
CCCC1Cc2[nH]c(=O)c(C#N)cc2CO1 (configuration not stated)	-0.3	-0.2	-0.3	-224.1	-7.4	-0.1	10.1	-1.4
O=C(O)CNC(=O)c1cccc(C(F)(F)F)c1	8.1	-16.4	-1.3	1.2	-11.9	-0.6	9.4	5.5
COc1ccc(C(=O)NCC(c2cccnc2)N2CCN(c3ccccc3)CC2)cc1OC (configuration not stated)	1.0	47.6	2.9	2.9	4.8	-0.3	3.0	-7.3
Cc1cc(NC(=O)c2cc([N+](=O)[O-])cc([N+](=O)[O-])c2)n(-c2ccccc2)n1	4.1	53.0	-20.3	4.8	29.0	-0.1	-0.4	-4.1
CC(=O)Nc1ccc([N+](=O)[O-])cn1	-1.4	-1.7	0.8	7.2	-5.6	0.3	4.6	-4.6
NS(=O)(=O)c1ccc(-c2ccc(/C=C3\C(=O)Nc4ccccc43)o2)cc1	4.0	3.6	0.6	.	-6.6	3.4	.	-4.0
Cc1nn(C(=O)c2ccoc2C)c(N)c1-c1ccccc1	-4.2	5.0	-2.9	2.1	-7.6	.	-3.0	-15.5
O=C(COC(=O)C1CCN(c2ccc(C(F)(F)F)cn2)CC1)c1ccc(Cl)cc1	-0.7	3.5	-1.6	-3.4	-0.7	-0.4	8.5	.
Cn1ccnc1C(O)c1cc(C(C)(C)C)c(O)c(C(C)(C)C)c1 (configuration not stated)	-0.2	-7.8	-3.3	5.1	4.4	-0.1	5.8	49.6

Bioassay records deposited in PubChem BioAssay by several laboratories.
